# RE007 growth inh – less growth of the S. pombe RE007 Vpr strain; S. pombe RE007 Vpr strain, BacTiter-Glo ATP luminescence, 24 h; control for the full effect not named in the record; Potency, µM (top dose mostly 92.2 µM), inactives show top-dose activity change, negative = less growth; 360,000 tested, 0.21% active; active = well fitted falling curve with a large enough effect; inconclusive = small, poorly fitted or top-dose-only effect; inactive = no such curve, though single readings can be large or run the other way;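 also: nearly all actives have a fitted effect of over 50% in size; the assay follows cell death caused by Vpr and the record does not say whether a fall means rescue or toxicity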
#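 Fission yeast strain RE007, carrying one chromosomally integrated HIV-1 vpr copy, was seeded at OD 0.01 in PMG+AL medium with 23 nL pinned compound. After 24 h at 30 °C and 99% humidity, viability was read by BacTiter-Glo luminescence.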
# 2A StopGo – FMDV 2A StopGo reporter, luciferase signal; human cells with a luciferase reporter of 2A StopGo recoding; control for the full effect not named in the record; Potency, µM (top dose mostly 57.9 µM), without a hit: at the top dose signal change, negative = less light; 410,000 tested, 1.2% active; AID 1159524; active = well fitted falling curve with a large enough effect; inconclusive = small, poorly fitted or top-dose-only effect; inactive = no such curve, though single readings can be large or run the other way; tested in HEK293T cells; also: nearly all actives have a fitted effect of over 45% in size; luciferase light after 4 h
# * marks the source's active call; other numbers are inactive results; u = inconclusive; [ ] = remark or other dose. % is scaled to controls: 0 for no effect and ±100 for the full control effect; potency is read from the fitted curve at half-maximal effect. Not all compounds are listed (hit frequency here may not be typical).
# Under each structure: RE007 growth inh, 2A StopGo
C=C1CCN([C@@H](Cc2ccccc2)C(=O)NCc2ccccc2)S(=O)(=O)c2ccccc21
    11%, 9%
CC(O)C1CCC2C3CCC4CC(O)CCC4(C)C3C(=O)CC12C (stereo not given)
    -3%, -14%
CC(C)c1ccc(NC2CCCN(C(=O)CN3CCCCC3=O)C2)cc1 (stereo not given)
    -1%, -10%
O=C(NCc1ccccc1)C(c1ccc(-c2ccccc2)cc1)N1CCN(C(=O)C2CCCO2)CC1 (stereo not given)
    3%, -15%
Cc1ccc(NC(=O)c2ncn(CCCNCc3ccccc3)n2)cc1C
    0%, -22%
COC(=O)c1ccc2nc(C3CCCCC3)c(Cc3ccc(C)cc3)n2c1
    -23%, 4%
Cc1cc(Cl)ccc1-c1cc2nc(NCCCN(C)C)n(C)c(=O)c2s1
    -14%, -18%
CC(O)(c1ccc(F)c(F)c1)c1nc(-c2cccc(C#N)c2)cs1 (stereo not given)
    -3%, 0%
CC(C)CC1C(=O)N(Cc2cn(CCC3OCCCO3)nn2)CCS(=O)(=O)N1Cc1ccc(-c2ccc(Cl)cc2)cc1 (stereo not given)
    -5%, -20%
O=C(N/N=C/c1ccccc1O)c1ccncc1
    3%[18.4 µM], 21%
COCCC(=O)N1CCOCC1c1cc(C(=O)Nc2ccccc2)no1 (stereo not given)
    6%, 6%
Nc1ccn([C@@H]2O[C@H](CNC(=O)[C@@H](N)CSCc3ccccc3)[C@@H](O)[C@H]2O)c(=O)n1
    24%, -19%
C=C1CCN(c2ccc(C(=O)NCc3ccc(OC)cc3)cc2[N+](=O)[O-])CC1
    -1%, -8%
CCOC(=O)[C@]12CCC=C1N(Cc1ccco1)C(=O)[C@H](CC(=O)NCc1ccc(OC)c(OC)c1)C2
    2%, -21%
COc1cccc(Nc2nc(C(N)c3ccccc3)cs2)n1 (stereo not given)
    1%[18.4 µM], 3%
O=C(NCc1ccccc1)C(c1ccc(C(F)(F)F)cc1)n1c(=O)c(-c2cc3ccccc3[nH]2)nc2ccccc21 (stereo not given)
    7%, -5%
COC(=O)c1cccc2c1C(=O)c1cc([N+](=O)[O-])ccc1-2
    -6%, -3%
CC(C)(C)C1CCN2CCC[C@](c3ccccc3)(C1)[C@@]21CO1 (stereo not given in full)
    3%, -20%
CCCNC(=O)c1cc(C2CCCCN2C(=O)CCCc2ccccc2)on1 (stereo not given)
    6%, -3%
CCNC(=O)N(C)c1c(CC)nc2ccc(C(=O)N3CCN(C(C)=O)CC3)cn12
    -5%[18.4 µM], -14%

# Other compounds:
# Under each structure: RE007 growth inh, 2A StopGo
C[C@H](NC(=O)c1[nH]cnc1C(=O)N[C@@H](C)CO)c1ccccc1
    -7%, -16%
ClCCn1c(CCl)nc2ccc(Cl)cc21
    -2%, u
COc1ccc(NC(=O)CSc2nc3ccsc3c(=O)n2CCC(=O)O)cc1
    3%, -7%
CCc1nc2c(OCc3ccccc3C(=O)OC)cccn2c1N(C)C(=O)c1cccs1
    -15%, -11%
CCOC(=O)C1(C)CCN1C(=O)c1cc(OC)ccc1Br (stereo not given)
    -11%, -20%
Cc1cccc(C(=O)Nc2ccc(NC(=O)c3cccc(C)c3)cc2)c1
    0%, 0%
C[C@@H]1CN([C@@H](C)CO)C(=O)CCCn2nncc2CO[C@@H]1CN(C)C(=O)Nc1ccc(N2CCCCC2)cc1
    -24%, -4%
CCOC(=O)CN1C(=O)N[C@@H](c2cccc(C(F)(F)F)c2)[C@@H](C(=O)OC)[C@H]1C
    4%, -5%
Cc1cc(S(=O)(=O)Nc2ccc(C(=O)NCCN3CCOCC3)cc2)ccc1F
    -4%, 5%
CC1(C(=O)NS(=O)(=O)c2ccc(F)cc2F)CCN1C(=O)C1(c2ccc(Cl)cc2)CCC1 (stereo not given)
    -13%[18.4 µM], -3%
O=c1oc(C2(O)CCCCC2)cc2ccccc12
    -14%, -13%
CCCC1NC(=O)c2cccnc2-n2c1nc1ccc(Cl)cc1c2=O (stereo not given)
    -4%, -19%
CCn1c(SCC(=O)NC2CCCC2)nc2c(c1=O)SCC2
    11%, -18%
O=C(NCc1ccccc1)C(c1ccncc1)n1c(=O)c(-c2ccccc2)nc2ccccc21 (stereo not given)
    -19%, 50%[activator]
F[B-](F)(F)COCc1ccccc1Br
    0%, -8%
O=C(Cc1ccc(S(=O)(=O)N2CCOCC2)s1)N1CCN(S(=O)(=O)c2ccccc2F)CC1
    8%, u
c1coc(CN2Cc3ccccc3-n3nncc3C2)c1
    15%, -7%
O=C(NCc1cccc(F)c1)c1[nH]c(C(F)(F)F)nc1-c1ccccc1
    29%, 0%
COCCNC(=O)C1(C)CCCN(C(=O)Cc2ccc3ccccc3c2)C1 (stereo not given)
    9%, -8%
COc1cccc(NC(=O)Nc2nnc([C@H]3C[C@H](O)[C@@H](CO)O3)s2)c1
    -10%, -19%

# Compound profiles, from the list above. Values in the order: RE007 growth inh | 2A StopGo
# O=C(Cc1ccc(S(=O)(=O)N2CCOCC2)s1)N1CCN(S(=O)(=O)c2ccccc2F)CC1 is listed with 8% | u
# ClCCn1c(CCl)nc2ccc(Cl)cc21 is listed with -2% | u
# COc1ccc(NC(=O)CSc2nc3ccsc3c(=O)n2CCC(=O)O)cc1 is listed with 3% | -7%
# COCCNC(=O)C1(C)CCCN(C(=O)Cc2ccc3ccccc3c2)C1 (stereo not given) is listed with 9% | -8%
# O=C(NCc1ccccc1)C(c1ccncc1)n1c(=O)c(-c2ccccc2)nc2ccccc21 (stereo not given) is listed with -19% | 50%[activator]

# Going on with the list.
# Under each structure: RE007 growth inh, 2A StopGo
Cc1ccc(NCCCn2cnc3c(OCc4ccccc4)ncnc32)cc1C
    -5%, -23%
COc1ccc(NC(=O)C2c3ccccc3OCC(=O)N2C2CC2)cc1 (stereo not given)
    -3%, -17%
O=C(Nc1cccc2c1CCCC2)c1cc(C2CCCCN2C(=O)CCCc2ccccc2)on1 (stereo not given)
    -4%, -19%
C=CCOC(=O)C1=C[C@H](c2ccc(Br)cc2)C[C@H](OCCCCO)O1
    -1%, -8%
C#Cc1cc(N2CCN(C(=O)c3ccoc3)CC2)n2nc(-c3cccc(Cl)c3)cc2n1
    -28%, 11µM*
COC(=O)C1=C(c2ccc(OCc3ccccc3)cc2)C[C@@H]2CC[C@H]1N2C(=O)NCc1ccc(Cl)cc1
    -24%, 0%
Cn1cc(-c2coc3c(C(=O)NCc4cccs4)cccc23)cn1
    -3%, 8%
CC1(C(=O)NS(=O)(=O)c2ccc(F)cc2F)CCN1C(=O)C1(c2ccc(Cl)cc2)CC1 (stereo not given)
    6%[18.4 µM], 32%[activator]
COc1ccc(C(=O)N2CCCC(CO)C2)cc1OC1CCN(C(C)C)CC1 (stereo not given)
    2%, -4%
CCN(CC)CCN(C)C(=O)c1[nH]c(C(F)(F)F)nc1-c1ccccc1
    4%, -16%
COCCn1c(SCC(=O)Nc2ccc(F)cc2F)nc2c(c1=O)SCC2
    5%, -24%
O=C(O)c1ccc[n+](Cc2ccc([N+](=O)[O-])cc2)c1
    13%, -12%
O=C1Nc2ccccc2C(=O)N(C2CCCC2)C1C(=O)NC1CC1 (stereo not given)
    11%, -13%
COc1ccc(/C=C/c2c(-c3cccc(C)c3)oc3ccc(N4CCOCC4)cc23)cc1
    2%, 0%
O=C(CSc1ncccn1)N(Cc1cccnc1)C(CCc1ccccc1)c1nc2ccccc2[nH]1 (stereo not given)
    -22%, 0%
C=CCC[C@H](CCCCC)OC(=O)/C=C/[C@H](O)[C@@H](O)C[C@@H](O)CC=C
    -10%, -5%
Cc1ccc(NC(=O)COC(=O)Cn2c(C)csc2=O)cc1S(=O)(=O)N1CCOCC1
    -2%, -15%
CC1CN(C(=O)COC(=O)/C=C/c2ccccc2)CC(C)O1 (stereo not given)
    1%, -6%
COCCNC(=O)C1CCCN(Cc2ccc(C)cc2)CC1 (stereo not given)
    5%, -15%
Cc1ccccc1CN1C(=O)c2ccccc2C1c1nnnn1C(C)C (stereo not given)
    24%, 3%

# (further entries)
# Under each structure: RE007 growth inh, 2A StopGo
O=C(c1cccc(-c2cccc3nccn23)c1)N1CCOCC1
    -11%, -1%
COc1ccc([C@H]2/C=C\CN(S(=O)(=O)c3ccc(C)cc3)[C@@H](C)C(=O)N2Cc2ccc(F)cc2)cc1
    -11%, -11%
O=c1[nH]cc(C=NNc2ccccc2)c(=O)[nH]1
    65%, 7%
N#CC12CC(=O)N1Cc1cnnn1-c1ccccc12 (stereo not given)
    12%, -19%
CC(C)CNc1ncnc2c1ncn2[C@H]1CN(Cc2ccc(C(=O)O)cc2)C[C@@H](CO)O1
    50%[18.4 µM], -8%
S=C1Nc2ccccc2CS1
    -9%, -4%
O=C(Nc1ccc2nc3n(c(=O)c2c1)CCCC3)c1cccnc1Cl
    -8%, -13%
CCC(Sc1ncccc1Nc1ccccn1)C(=O)O (stereo not given)
    5%, -4%
O=C(Cc1ccc(NC(=O)C2CCCN(C(=O)C3CCC3)C2)cc1)Nc1cccc(C(=O)N2CCCC2)c1 (stereo not given)
    4%, -21%
O=C(NCc1ccccc1Cl)c1ccc2nc([C@@H]3O[C@H](CO)[C@@H](O)[C@H]3O)[nH]c2c1
    -3%[18.4 µM], -20%
CCNC(=O)C1(C)CCCN(C(=O)c2oc3ccccc3c2C)C1 (stereo not given)
    13%[18.4 µM], 1%
C[C@@H]1CN([C@H](C)CO)S(=O)(=O)c2ccc(-c3cccc(C(=O)N(C)C)c3)cc2O[C@H]1CN(C)C(=O)Nc1ccc(F)cc1
    -9%, 10%
O=[N+]([O-])c1ccccc1S(=O)NCc1c(Cl)cccc1Cl (stereo not given)
    -5%[18.4 µM], 2%
CC(=O)Nc1cccc(-c2ccnc3c2CC(C)(C(=O)NCc2ccccc2)O3)c1 (stereo not given)
    -8%[18.4 µM], -12%
COc1ccc(C#Cc2cccc(-c3nc(C(=O)N4CCN(C)CC4)cc4c3[C@H](CCO)N(S(=O)C(C)(C)C)C4)c2)cc1OC (stereo not given in full)
    u, -6%
Cc1ccc(S(=O)(=O)N2CC3C(=O)CC(c4ccccc4)N(S(=O)(=O)c4ccc(C)cc4)C3CC2c2cccc(Cl)c2)cc1 (stereo not given)
    4%, -16%
CN(C)c1ccc(CNc2nc3cc(-c4ccc(F)cc4)sc3c(=O)n2C)cc1
    -6%, 0%
CCOc1ccc2c(c1)OC1(CCC(C)C1)CC2=O (stereo not given)
    1%, 0%
C/C=C/c1cc(OC)c2c(c1)[C@H](C)[C@@H](c1ccc(O)c(OC)c1)O2
    8%, -21%
CC[C@@H](NC(=O)[C@@H](Cc1ccccc1)NC(=O)CC[C@H]1O[C@@H](n2ccc(=O)[nH]c2=O)[C@H](O)[C@@H]1O)c1ccccc1
    5%, -5%

# Further compounds follow:
# Under each structure: RE007 growth inh, 2A StopGo
CCOC(=O)[C@]12CCC=C1N(Cc1ccc3c(c1)OCO3)C(=O)[C@H](CC(=O)N1CCOCC1)C2
    12%, -18%
COc1cccc(C(C)(O)c2nc(-c3ccc(N(C)C)cc3)cs2)c1 (stereo not given)
    15%, -7%
CCC1OC(=O)C(C)C(OC2C[C@@](C)(OC)C(O)C(C)O2)C(C)C(O[C@@H]2OC(C)CC(N(C)C)C2O)[C@](C)(O)CC(C)C(=NOCOCCOC)C(C)C(O)[C@]1(C)O (stereo not given in full)
    5%[18.4 µM], -11%
CCN1C[C@@]2(COC)C3[C@@H](OC)[C@H]4[C@@H]1[C@@]3(C1C[C@@]3(O)[C@H](OC(=O)c5ccccc5)C1[C@]4(OC(C)=O)[C@@H](O)[C@H]3OC)[C@@H](OC)C[C@H]2O (stereo not given in full)
    -3%[18.4 µM], -10%
C[C@H]1CN([C@@H](C)CO)C(=O)CCCn2cc(nn2)CO[C@@H]1CN(C)C(=O)NC1CCCCC1
    2%, -4%
Cc1ccc2nc(-c3ccc(C#N)cc3)c(Cc3ccccn3)n2c1
    -14%, 26%
Cn1c(NCCN2CCCC2)nc2cc(-c3ccccc3)sc2c1=O
    -15%, -1%
c1ccc(N=NN2CCOCC2)cc1
    6%, 0%
C[C@@H](c1ccccc1)N1C[C@@H](COCc2ccccc2)Oc2cc(N3CC[C@H](N(C)C)C3)ccc2S1(=O)=O
    -1%, -3%
COc1ccc(S(=O)(=O)N2CCC(C(=O)NCCC(=O)NCCc3cccc(F)c3)CC2)cc1
    9%, -9%
O=C(NCc1ccccc1)c1cc(C2CCCCN2S(=O)(=O)c2ccccc2)on1 (stereo not given)
    -7%, 1%
CC(C)(C)OC(=O)CC(S(=O)(=O)c1ccccc1)S(=O)(=O)c1ccccc1
    -13%, u
CC(=O)/C=C1\OCc2cc(OCc3ccccc3)ccc21
    -10%, 24%
CCCC(=O)N1CCCC1(C)C(=O)Nc1ccc(-n2cncn2)cc1 (stereo not given)
    -8%[18.4 µM], -5%
Cc1noc(C)c1-c1ccc(C(=O)NCc2ccc(Cl)cc2)c2occc12
    3%[18.4 µM], 9%
C[C@@H]1CCCCO[C@@H](CN(C)C(=O)C2CCCCC2)[C@@H](C)CN([C@H](C)CO)C(=O)c2cc(NC(=O)NC3CCCCC3)ccc2O1
    4%, -11%
COc1ccccc1-c1cccc(-c2nc(C(=O)Nc3nccs3)cc3c2[C@@H](CCO)N(C(C)=O)C3)c1
    -13%, u
